From PubChem BioAssay
hNpr1 antagonist = blocks ANP-stimulated signaling of human Npr1 receptor | Potency, µM (titrated, usually from 46.3 µM), for the others: top-dose activity change, negative = inhibition, usual class: inhibitors | actives 1.6% (n = 76,000) | AID 1347048 | HEK293 hNpr1 GloSensor cGMP, ANP-stimulated luminescence | P16066; active = well fitted inhibition curve with a large enough effect; inconclusive = small, poorly fitted or top-dose-only effect; inactive = no such curve, though single readings can be large or run the other way;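 also: nearly all actives have a fitted effect of over 60% in size; nearly all hits also lower the signal before the agonist is added; a reference antagonist and vehicle were the controls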
Target sequence (P16066 whole entry, looked up): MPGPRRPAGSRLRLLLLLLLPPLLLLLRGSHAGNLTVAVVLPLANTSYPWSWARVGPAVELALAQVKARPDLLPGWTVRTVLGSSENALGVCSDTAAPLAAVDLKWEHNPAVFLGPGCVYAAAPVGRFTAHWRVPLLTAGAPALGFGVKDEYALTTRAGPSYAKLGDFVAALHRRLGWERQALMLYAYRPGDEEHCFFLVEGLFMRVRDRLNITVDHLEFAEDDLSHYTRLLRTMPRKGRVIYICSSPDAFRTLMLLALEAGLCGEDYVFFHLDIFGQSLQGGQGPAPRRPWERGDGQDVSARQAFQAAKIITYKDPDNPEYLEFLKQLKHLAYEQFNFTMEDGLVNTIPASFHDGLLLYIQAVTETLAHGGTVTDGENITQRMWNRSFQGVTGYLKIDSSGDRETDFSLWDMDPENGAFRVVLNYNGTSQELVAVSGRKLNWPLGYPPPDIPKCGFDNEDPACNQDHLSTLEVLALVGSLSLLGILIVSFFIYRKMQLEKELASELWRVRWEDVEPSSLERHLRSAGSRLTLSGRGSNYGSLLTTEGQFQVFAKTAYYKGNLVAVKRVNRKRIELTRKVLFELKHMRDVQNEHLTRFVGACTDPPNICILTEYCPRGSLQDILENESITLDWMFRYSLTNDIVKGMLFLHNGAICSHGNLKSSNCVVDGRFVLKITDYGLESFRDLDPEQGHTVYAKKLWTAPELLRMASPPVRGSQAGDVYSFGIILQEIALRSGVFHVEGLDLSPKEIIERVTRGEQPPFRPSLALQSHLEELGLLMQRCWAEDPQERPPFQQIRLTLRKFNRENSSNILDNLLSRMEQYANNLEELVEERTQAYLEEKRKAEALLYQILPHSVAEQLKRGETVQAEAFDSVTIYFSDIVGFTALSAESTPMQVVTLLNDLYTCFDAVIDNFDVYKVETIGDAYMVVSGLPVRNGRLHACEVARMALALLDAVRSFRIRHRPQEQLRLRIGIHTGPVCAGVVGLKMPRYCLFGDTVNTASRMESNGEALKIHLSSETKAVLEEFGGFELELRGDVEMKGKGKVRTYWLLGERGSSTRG
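Compound pre-incubated 30 min at room temperature on GloSensor-loaded HEK293 cells stably carrying hNpr1 and the pGS-40F cGMP biosensor. Stimulation uses hNppA at 0.1 nM final; luminescence is taken at baseline and 20 min post-agonist.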
Active calls of the source: *; ? = inconclusive; & = joins results of further samples; [ ] = dose if it differs, or a comment. % is scaled to controls: 0 for no effect and ±100 for the full control effect; potency is read from the fitted curve at half-maximal effect. An excerpt; the hit share may differ from the screen's.

smiles	hNpr1 antagonist
COc1ccc(Cc2nc3nccc(-c4ccc(F)cc4OC)n3n2)cc1	-12.0%
Cc1cc(=O)n(CC(=O)NCc2ccccc2Br)c(N(C)Cc2ccccc2)n1	-14.3%
COCCOc1ccc2c(n1)CCN(C(=O)c1ccc(C(C)C)cc1)C2	-7.3%
O=C1NCCCCCN(C(=O)c2cnccn2)[C@H]2CCC[C@@H]12	7.1%
COC[C@@H]1CN(C(=O)c2ccoc2C)C[C@H]1c1nc(C)no1	2.4%
Cc1cccc(NC(=O)C2Cn3cccc3C(=O)N2)c1 (stereo unspecified)	-3.2%
COc1ccc(-c2ccc3nc(-c4c(F)c(F)cc(F)c4F)oc3c2)c(OC)c1OC	2.5%
CC(C)NC(=O)[C@@H]1C[C@H](N)CN1C(=O)c1ccccc1-c1ncc[nH]1	2.8%
O=C(NC1CCc2nnc(C3CC3)n2CC1)c1cc(C2CC2)[nH]n1 (stereo unspecified)	-2.5%
Cc1ccc(NC(=O)Cn2ccn3nc4c(c3c2=O)CC(C)CC4)cc1C (stereo unspecified)	-0.4%
COc1ccc(Cn2c(-c3ccccc3)nc(C)c(CCO)c2=O)cc1F	1.3%
Cc1noc(C)c1-c1cc2cc(C(C)C)oc2c(Nc2ccn(C)n2)n1	1.0%[70.6 µM]
CN1CCC(OC2CCN(S(=O)(=O)c3ccccc3C(F)(F)F)CC2)CC1	-3.9%
CCn1c(=O)c2ccnn2c2ccc(C(=O)NCCCOC(C)C)cc21	-9.1%
Cc1nn(C)c(C)c1CN(Cc1cnc(N2CCCCC2)nc1)C1CC1	12.6µM*
COCCCNC(=O)N1CCCN(Cc2ccncc2)C(c2ccccc2)CC(=O)NCC1 (stereo unspecified)	3.6%
CCn1ncc(C(=O)N[C@@H]2CN(c3ccccn3)C[C@H]2CN(C)C)c1C	1.2%
O=C1CCC2(CNC(=O)c3n[nH]c(=O)c4ccccc34)CCCC=C2N1 (stereo unspecified)	12.3%
Cc1oc(-c2ccccc2)nc1CN1CCCC(C(=O)NCCc2noc(-c3ccccc3)n2)C1 (stereo unspecified)	12.6µM*
Cn1cnc(S(=O)(=O)N2CCC(Cc3ccc(C(N)=O)cc3)CC2)c1	-9.4%
COc1ccccc1OC1(C(=O)O)CCN(Cc2cnn(C)c2C)CC1	-0.6%
Cc1cc(C)cc(CCC(=O)N2CCC3(CC2)C(C(=O)O)CC(=O)N3C)c1 (stereo unspecified)	6.8%
COc1ccc(CC(=O)N2CCC3(CC2)N(C)C(=O)CS3(=O)=O)cc1Cl	-23.9%
CC(NC(=O)c1ccc(CN2C(=O)NC3(CCOCC3)C2=O)cc1)c1ccccc1 (stereo unspecified)	14.5%
COc1ccccc1CCC(=O)N1CC(c2noc(-c3ccccc3)n2)C1	-1.1%
CCCN(CC1CC1)C(=O)CCC[C@H]1NC[C@@H]2C[C@H]1CN(Cc1ccccc1)C2	-20.2%
O=C(Cc1ccccc1Cl)N1CCC(Cc2nc(-c3ccccc3)no2)CC1	?
CC1CCC2(CC1)OCC(C(=O)NCc1ccccc1F)N2C(=O)c1ccccc1F (stereo unspecified)	5.4%
O=C(NC1CCCCC1)[C@@H]1Cc2nc[nH]c2CN1Cc1ccc(C(F)(F)F)cc1	6.2%[70.6 µM]
CC(C)NC(=O)C1c2ccccc2C(=O)N(C2CCCC2)C12CCCC2 (stereo unspecified)	-0.9%
COc1ccc(-c2cnc3n[nH]c(-c4ccc(F)cc4C)c3n2)cc1	-0.9%[70.6 µM]
CCOc1cc(=O)n2c(c1C(=O)NCc1ccc(C)o1)CCCCC2	2.8%
Cc1cc(CN2CCC3(CC2)CN(c2ncccn2)CC3CO)n(C)n1 (stereo unspecified)	5.0%
CNC1CCc2nn(C)c(=O)n2CC1 (stereo unspecified)	3.4%
O=C(c1cncc(N2CCCC(CCc3cccc(F)c3)C2)n1)N1CCCCC1 (stereo unspecified)	-14.7%
O=C1CC2(CCN(Cc3ccc(F)cc3)CC2)Oc2ccccc21	-1.4%[70.6 µM]
O=C(Nc1ccccc1)c1cnc2c(c1)N(C(=O)Cc1ccc(O)cc1)CCC2	28.2µM*
O=C1OC[C@@H]2CCN(Cc3ccc(Cl)cc3)Cc3ccc(F)cc3N12	-1.0%[70.6 µM]
COc1ccc(C2Cn3nnc(-c4noc(COc5ccc(F)cc5)n4)c3CO2)cc1 (stereo unspecified)	3.8%
CCCCc1nn(CC(=O)N2CCNC(=O)C2)c(=O)n1CCc1ccccc1	-1.2%

Some of the entries above, set out differently:
> Cc1nn(C)c(C)c1CN(Cc1cnc(N2CCCCC2)nc1)C1CC1
  hNpr1 antagonist: 12.6µM*

> COc1ccccc1CCC(=O)N1CC(c2noc(-c3ccccc3)n2)C1
  hNpr1 antagonist: -1.1%

> COc1ccccc1OC1(C(=O)O)CCN(Cc2cnn(C)c2C)CC1
  hNpr1 antagonist: -0.6%

> O=C1CCC2(CNC(=O)c3n[nH]c(=O)c4ccccc34)CCCC=C2N1 (stereo unspecified)
  hNpr1 antagonist: 12.3%

(continued)
smiles	hNpr1 antagonist
COC1C(=O)N(C2CCN(C(=O)NCc3ccc(C)cc3)CC2)C12CCOCC2 (stereo unspecified)	-4.0%
Cc1ccc(-c2cc3c(=O)n(CCNC(=O)c4ccc(Cl)cc4)ccn3n2)c(C)c1	-26.5%
Cc1ccc(S(=O)(=O)N2CCC(n3cnnc3C(C)C)CC2)cc1F	?
O=C(NC1CCCCC1)[C@@H]1C[C@@H](O)CN1C1CCN(C(=O)c2ccco2)CC1	13.1%
c1cnc(N2CCOCC2)c(CNCc2ccc(C3CCCCO3)o2)c1 (stereo unspecified)	-0.9%
O=C(C1CCCN1c1nc2ncccc2o1)N1CCCC1 (stereo unspecified)	7.1%[70.6 µM]
CC(C)CNC(=O)Cc1ccc(N(Cc2ccccc2)C(=O)c2ccco2)cc1	-12.2%
CCN(CC)C(=O)CC[C@@H]1CNC(=O)[C@@H]2C[C@H](NCc3cccs3)CN12	-2.4%[70.6 µM]
CCCN(C)C(=O)Cc1ccc(N(Cc2ccc(C)cc2)C(=O)c2ccco2)cc1	-7.9%
CCC1c2nccn2CCCN1C(=O)c1ccc(OC)nc1OC (stereo unspecified)	0.9%
COC[C@@H]1CN(C(=O)c2cc(C)nn2C)C[C@H]1c1ccncc1	7.9%
O=C(c1ccno1)N1C[C@@H](F)[C@@H](OCc2nc3ccc(F)cc3[nH]2)C1	1.6%[70.6 µM]
CCC1=C(C(=O)OC)C(c2ccccc2)N2C(CC(=O)N(C)Cc3ccccc3)=CSC2=N1 (stereo unspecified)	-22.0%
CN1CCN(C[C@@H]2CN(C(=O)CCc3c[nH]c4ccccc34)C[C@@H]2CO)CC1	2.5%
CC(=O)NC[C@H]1Cn2c(-c3ccc4c(c3)OCCO4)cnc2CO1	-1.9%[70.6 µM]
COc1ccc(C)cc1NC(=O)N1CCC(OC2CCN(S(C)(=O)=O)CC2)CC1	1.0%
Cc1ccc(OCc2nc(C3CN(C(=O)c4n[nH]c5ccccc45)C3)no2)cc1	?
O[C@@H]1C[C@@H](c2nc(-c3ccc(OC(F)(F)F)cc3)no2)N(C2CCOCC2)C1	-9.6%[70.6 µM]
Cc1cc(NC(=O)c2cc3n(n2)CC(c2ccc(Cl)cc2)OC3)ccc1F (stereo unspecified)	-26.4%
CN1CCC(NC2(Cc3cc(CCO)on3)COC2)CC1	-3.0%[70.6 µM]
CCN1CCN(c2nc3c(s2)CN(C(=O)c2ccccn2)CC3)CC1	2.3%
O=C(NC1CCC(O)CC1)c1ccc(-c2ncc3cnc(-c4ccccc4)cn23)cc1 (stereo unspecified)	-13.2%[70.6 µM]
Cc1ccc(S(=O)(=O)N2CC(c3nc(-c4ccncc4)no3)C2)cc1	-21.5%
O=C(Cc1cccc(F)c1)Nc1cnc(-c2cccnc2)nc1	-10.0%
Cc1cnc(C(=O)NC2C[C@H]3CC[C@@H](C2)N3C(=O)c2cc(C)n(C)n2)cn1 (stereo partly specified)	-1.9%
Cc1ccc(S(=O)(=O)N2CCN(C3CCN(Cc4cccnc4)C3=O)CC2)cc1 (stereo unspecified)	0.1%
Cc1ncc2n1C(=O)N(C1CCN(Cc3ccccc3F)CC1)C2	1.3%&4.6%[70.6 µM]
O=c1cc(N2CCOCC2)oc2c(NCc3ccc(F)cc3)nccc12	3.9%[70.6 µM]
COc1ccc(/C=C/CN2CCC3(CC2)C(=O)N(Cc2cccnc2)C(=O)N3C)cc1	-12.9%
CNc1ncccc1C(=O)N[C@@H]1COCC[C@@H]1OCc1ccccc1	5.4%
CC1=NS(=O)(=O)N(C)C=C1C(=O)OCc1nc(-c2ccc3c(c2)OCO3)no1	11.2µM*
Cc1nn2c(c1-c1cccnc1N1CCOCC1)N(C(=O)COc1ccccc1)CCC2	2.0%[70.6 µM]
CN1C(=O)C(CC(=O)NCc2ccccc2)=C2CCCCC21 (stereo unspecified)	2.1%
CC1=C[C@@H](CNC(=O)c2ccncc2)[C@H](C(C)C)C[C@H]1CC(=O)NCc1ccc(C#N)cc1	-0.1%
Cc1cnc(C(=O)N[C@@H]2CCC[C@@H]2C(=O)N(C)C)cn1	8.1%
Cc1cn2nnc(C(=O)NC3CCC(C)CC3)c2c(=O)[nH]1 (stereo unspecified)	2.0%
CN(C)C(=O)c1cccnc1OC1CCN(C(=O)NC(C)(C)C)C1 (stereo unspecified)	-0.1%
COc1ccc(-n2cccn2)c(CN2CC[C@H](CO)[C@H](O)C2)c1	-10.3%
COCc1ccc2c(c1)c(OC(C)(C)C(=O)Nc1ccn(C)n1)nn2Cc1cccnc1	1.3%[70.6 µM]
COc1ccc(C(=O)N[C@@H]2CCC[C@@H]2C(=O)N2CCN(c3cc(C)ccc3C)CC2)cc1	-4.9%
COc1ccc(C2NC(=O)N(CC(=O)N3CCC(C)CC3)C3=C2C(=O)OC3)cc1 (stereo unspecified)	-4.0%
CCC1c2nccn2CCCN1C(=O)CN1CCCC1=O (stereo unspecified)	1.6%
O=C(Nc1ccc(Cl)cc1)N1CCC2(CC1)C(=O)NCN2Cc1ccc(Cl)cc1	2.1%
CC1=C[C@@H](CNC(C)C)[C@H](C(C)C)C[C@H]1Cc1nnc(-c2ccc(N(C)C)cc2)o1	6.0%[70.6 µM]
COc1cccc(-c2nnnn2[C@H]2CO[C@H]3[C@@H]2OC[C@@H]3NS(=O)(=O)Cc2ccccc2)c1	1.0%
O=C(c1ccccc1F)N1CCC(n2cc(-c3nc(-c4ccccc4)no3)nn2)C1 (stereo unspecified)	14.1µM*
COc1ccc(C(=O)N2CCC(C3CCN(S(C)(=O)=O)CC3)C2)c(C)c1 (stereo unspecified)	6.3%
COC[C@H]1C[C@@H](NC(=O)Nc2ccc(C(F)(F)F)cc2)[C@H](O)[C@@H]1O	3.9%[70.6 µM]
COc1ccc(-c2noc(Nc3cc(C)ccc3OC)n2)cc1	-5.8%
COc1cccc(C(=O)N2CCC(c3n[nH]c(=O)n3-c3ccc(C)cc3)CC2)c1OC	-11.6%
COc1ccc(OC)c(NC(=O)Cn2ccn3nc4c(c3c2=O)CCCCC4)c1	-2.2%
CO[C@@H]1COCC[C@H]1NC(=O)CN(c1ccc(C)cc1)S(C)(=O)=O	9.2%
Cc1nonc1CN(C)C(=O)C1CCCN(C2CCN(C(=O)C3CC3)CC2)C1 (stereo unspecified)	4.4%
COc1ccc(C2Cn3nnc(-c4nc(-c5ccccc5Br)no4)c3CO2)cc1 (stereo unspecified)	-21.6%
COc1cccc2c1OCC(CNC(=O)c1sc(C)nc1C)C2 (stereo unspecified)	?
COCC(=O)Nc1ccc([C@H]2OCC(=O)N(Cc3scnc3C)[C@@H]2CO)cc1	0.7%[70.6 µM]
CN(Cc1ccco1)C(=O)c1ccc(-c2ccc(N3CCCCCC3)nc2)cc1	?
O=C(CC1CCCN(c2cn[nH]c(=O)c2)C1)NCc1cc(F)cc(F)c1 (stereo unspecified)	0.0%
CC(C)c1nc(CN(C)C(=O)C2CCC(=O)N(C3CCCC3)C2)cs1 (stereo unspecified)	1.6%
Cc1nc(-c2ccccc2)n(Cc2cccc(C(F)(F)F)c2)c(=O)c1CCO	0.6%

Other entries.
smiles	hNpr1 antagonist
COc1ccc(N2C(=O)C3(CCCCC3)C2C(=O)NCCc2ccncc2)cc1 (stereo unspecified)	-8.8%
COc1ccc(CN2C=C(C(=O)OCc3noc(C4CCCC4)n3)C(C)=NS2(=O)=O)cc1	?
CN(C)C(=O)c1ccc(OC2CCN(C(=O)c3ccc(F)cc3)CC2)nc1	-8.9%
COC(=O)c1cc(CN2CCCC(O)(CN(C)C)C2)ccc1O (stereo unspecified)	2.2%
COc1ccc(C(=O)N2CC(C(=O)NC3CCCCC3)C3(CCOCC3)C2)cc1 (stereo unspecified)	0.3%
COc1ccc(C(=O)N[C@@H]2CCC[C@@H]2C(=O)N2CCN(C(C)C)CC2)cn1	5.2%
O=C(c1cccc(Cl)c1)N1CCCC(c2nn(-c3cccc(Cl)c3)c(=O)[nH]2)C1 (stereo unspecified)	22.8%
CCc1csc(CNC(=O)c2ccc(OCC3(C)CCCNC3)nc2)n1 (stereo unspecified)	3.1%
CC(=O)Nc1ccc(S(=O)(=O)N[C@H]2C[C@@H](c3nc(C)no3)N(C)C2)cc1	-1.0%[70.6 µM]
COc1cc2c(cc1NS(C)(=O)=O)C(c1cccc3nsnc13)CC(=O)N2 (stereo unspecified)	-8.5%
